PD-1 reversal: activators reversing PD-1 mediated T-cell inhibition, primary screen, luminescence, primary human CD4 T cells, PD-L1 beads; CellTiter-Glo 96 h; activation, % (concentration not given with the values); 29,000 tested, under 10 active;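 active = replicate mean of 50% or more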;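 note: 0% = median vehicle wells and 100% = positive control; 100 nL library stock added to about 50 µL; numbers are from one replicate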
YB-1 expr inh: inhibitors of YB-1 gene expression, primary screen, cell-based, fluorescence. U2OS, qRT-PCR YB-1 vs CDIP delta delta Cp, 16 h; hits give high values; zero = DMSO, each unit about twofold. delta delta Cp (YB-1 minus CDIP) (concentration not given with the values). 30,000 tested, 0.37% active. AID 434959, 2010;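 active = delta delta Cp rounded down to an integer at or above 3, about 3 SD of DMSO wells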;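 note: higher means less YB-1 transcript or more CDIP transcript relative to DMSO; stock transfer was 100 nL into about 100 µL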
Shh pathway inh: Hedgehog pathway signaling inhibitors, primary screen, luminescence, Shh-LIGHT2 cells, Gli-luciferase; Shh-LIGHT2 Gli-luciferase reporter, 30 h; inhibition, % (no concentration beside the values); 22,000 tested, 2.1% active;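 active = replicate mean of 65% or more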;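 note: pathway switched on by Shh-conditioned medium diluted 1 in 25 in low serum; 100 nL library stock added to about 40 µL; 0% = median of neutral wells and 100% = positive control level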
MITF inhib: inhibitors of MITF, primary screen, MITF inhibitor project, cell-based, luminescence. TRPM1 promoter luciferase, 24 h. 37,000 tested, 0.28% active. inhibition, % (test concentration not listed). AID 2240, 2010;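 active = most replicates at 85% or more, or half of them and the mean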;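 note: human melanocyte line stably carrying TRPM1 promoter luciferase reporter; 0% = vehicle wells and 100% = a positive control; the first replicate is given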
Active calls of the source: *; . = no result given.

SMILES	PD-1 reversal	YB-1 expr inh	Shh pathway inh	MITF inhib
Cc1sc2ncnc(SCC(=O)NC3CCCCC3)c2c1C	-0.6	.	.	5
Cc1ccc(S(=O)(=O)Nc2ccc3c(c2)C(=O)N([C@H](C)CO)C[C@H](C)[C@@H](CN(C)C(=O)Cc2ccccc2)OCCCC[C@@H](C)O3)cc1	0.9	-0.52	.	2
CCC(=O)Nc1ccc(Cl)c(NC(=O)COc2cc(C)cc(C)c2)c1	-0.5	.	.	6
Cc1ccc(S(=O)(=O)N(C)C[C@H]2Oc3ccc(NC(=O)Nc4ccc(C(F)(F)F)cc4)cc3C(=O)N([C@H](C)CO)C[C@H]2C)cc1	-1.7	0.12	23	24
CS(=O)(=O)N(CC(=O)Nc1c(F)cccc1F)Cc1ccccc1	1.1	.	.	-14
COc1ccc(NC(=O)Nc2cccc3c2O[C@H](CN(C)Cc2ccccc2)[C@H](C)CN([C@H](C)CO)C3=O)cc1	.	-0.024	23	-12
COc1ccc(NC(=O)Nc2ccc3c(c2)C(=O)N([C@H](C)CO)C[C@@H](C)[C@H](CN(C)C(=O)Nc2ccc(OC)cc2)O3)cc1	-0.4	0.13	-26	-3
C[C@H]1CN([C@@H](C)CO)C(=O)c2cccc(NC(=O)NC3CCCCC3)c2O[C@H]1CN(C)Cc1ccc(-c2ccccc2)cc1	-1.9	-0.2	-3	4
Cc1sc2ncn(CC(=O)Nc3ccc(Oc4ccccc4)cc3)c(=O)c2c1C	-1.4	.	.	16
CCOC(=O)C1CCN(S(=O)(=O)Cc2ccccc2)C1=O (stereo not drawn)	-0.4	0.042	8	-18
C[C@H]1CN([C@@H](C)CO)C(=O)c2cccc(NS(=O)(=O)c3cn(C)cn3)c2O[C@H]1CN(C)Cc1ccc(C(=O)Nc2ccccc2N)cc1	1.3	-0.15	.	-10
COc1ccccc1NC(=O)CSc1ncc(-c2ccccc2)nn1	-1.0	.	.	-4
C[C@@H]1CCCCO[C@H](CN(C)S(C)(=O)=O)[C@@H](C)CN([C@H](C)CO)C(=O)c2cc(NC(=O)c3ccncc3)ccc2O1	2.1	-0.14	-16	12
Cc1cccc(N(CC(=O)Nc2ccc(F)cc2)S(C)(=O)=O)c1C	-1.0	.	.	1
C[C@@H]1CN([C@H](C)CO)C(=O)Cc2cc(NC(=O)Nc3cccc4ccccc34)ccc2O[C@H]1CN(C)Cc1ccc(-c2ccccc2)cc1	-2.2	1	34	8
Cc1ccc(S(=O)(=O)N(C)C[C@@H]2Oc3ccc(NC(=O)Nc4ccccc4)cc3C(=O)N([C@H](C)CO)C[C@H]2C)cc1	-0.6	0.1	.	-24
COc1ccc(NC(=O)Cc2coc3c(C)c(C)ccc23)c(OC)c1	-1.3	.	.	2
C[C@@H]1CCCCO[C@@H](CN(C)S(=O)(=O)c2ccccc2)[C@@H](C)CN([C@H](C)CO)C(=O)c2cc(NC(=O)Nc3ccc(F)cc3)ccc2O1	-2.8	0.21	19	14
C[C@H](CO)N1C[C@H](C)[C@H](CN(C)Cc2ccc(Oc3ccccc3)cc2)Oc2ccc(NC(=O)CCC(F)(F)F)cc2C1=O	-3.0	-0.35	-7	3
C[C@H]1CN([C@@H](C)CO)C(=O)c2cccc(NC(=O)c3cnccn3)c2O[C@@H]1CN(C)C(=O)Nc1ccc(F)cc1	0.9	0.052	-43	-18
CC(C)NC(=O)Nc1ccc2c(c1)C(=O)N([C@H](C)CO)C[C@H](C)[C@@H](CN(C)Cc1ccc3c(c1)OCO3)OCCCC[C@@H](C)O2	-0.1	0.15	-3	-8
C[C@H]1CN([C@@H](C)CO)C(=O)c2cc(NC(=O)CCN3CCOCC3)ccc2O[C@H]1CN(C)Cc1ccc2c(c1)OCO2	-5.0	-0.7	.	-1
COc1ccc(CN(C)C[C@@H]2Oc3ccc(NS(C)(=O)=O)cc3CC(=O)N([C@@H](C)CO)C[C@@H]2C)cc1	.	-0.21	5	-9
C=C(C(=O)O)[C@@H]1CC[C@@]2(C)CC[C@@H](O)C(=C)C2C1 (stereo partly drawn)	-1.4	3.6*	-19	-2
COc1ccc(NC(=O)Nc2cccc3c2O[C@H](CN(C)S(=O)(=O)c2ccc(C)cc2)[C@H](C)CN([C@@H](C)CO)C3=O)cc1	.	-0.069	-4	14
CCN(CC)CCNC(=O)c1cc(Br)c(N)cc1OC	.	0.082	-12	3
CC(NS(=O)(=O)c1ccc(Cl)cc1)C(=O)Nc1cccc2ccccc12 (stereo not drawn)	-1.3	.	.	17
C[C@H](CO)N1C[C@H](C)[C@H](CN(C)Cc2ccc(-c3ccccc3)cc2)Oc2ccc(NS(=O)(=O)c3cccs3)cc2CC1=O	0.6	0.013	10	0
C[C@@H]1CCCCO[C@@H](CN(C)Cc2ccncc2)[C@@H](C)CN([C@H](C)CO)C(=O)c2cc(NC(=O)c3ccncc3)ccc2O1	3.9	0.11	-13	-13
CC(C)c1nc(/N=C/N(C)C)nc(=O)n1C	0.9	-0.35	-18	9

Sorted by molecular weight (rising): some entries from above
SMILES	PD-1 reversal	YB-1 expr inh	Shh pathway inh	MITF inhib
CCN(CC)CCNC(=O)c1cc(Br)c(N)cc1OC	.	0.082	-12	3
COc1ccc(CN(C)C[C@@H]2Oc3ccc(NS(C)(=O)=O)cc3CC(=O)N([C@@H](C)CO)C[C@@H]2C)cc1	.	-0.21	5	-9
Cc1ccc(S(=O)(=O)N(C)C[C@@H]2Oc3ccc(NC(=O)Nc4ccccc4)cc3C(=O)N([C@H](C)CO)C[C@H]2C)cc1	-0.6	0.1	.	-24
C[C@H]1CN([C@@H](C)CO)C(=O)c2cc(NC(=O)CCN3CCOCC3)ccc2O[C@H]1CN(C)Cc1ccc2c(c1)OCO2	-5.0	-0.7	.	-1
COc1ccc(NC(=O)Nc2cccc3c2O[C@H](CN(C)S(=O)(=O)c2ccc(C)cc2)[C@H](C)CN([C@@H](C)CO)C3=O)cc1	.	-0.069	-4	14
CC(C)NC(=O)Nc1ccc2c(c1)C(=O)N([C@H](C)CO)C[C@H](C)[C@@H](CN(C)Cc1ccc3c(c1)OCO3)OCCCC[C@@H](C)O2	-0.1	0.15	-3	-8
C[C@H](CO)N1C[C@H](C)[C@H](CN(C)Cc2ccc(-c3ccccc3)cc2)Oc2ccc(NS(=O)(=O)c3cccs3)cc2CC1=O	0.6	0.013	10	0

(cont.)
SMILES	PD-1 reversal	YB-1 expr inh	Shh pathway inh	MITF inhib
COc1ccc(NC(=O)Nc2ccc3c(c2)CC(=O)N([C@H](C)CO)C[C@@H](C)[C@H](CN(C)Cc2ccncc2)O3)cc1	1.3	0.085	-22	-2
CNC[C@@H]1Oc2ccc(NS(=O)(=O)c3ccc(OC)cc3)cc2CC(=O)N([C@@H](C)CO)C[C@@H]1C	-0.2	-0.12	-13	9
C[C@@H]1CN([C@H](C)CO)C(=O)c2cc(NS(=O)(=O)c3cn(C)cn3)ccc2O[C@H]1CN(C)S(C)(=O)=O	1.9	0.1	.	-9
C[C@H](CO)N1C[C@H](C)[C@@H](CN(C)Cc2ccc3c(c2)OCO3)Oc2c(NC(=O)Nc3ccccc3)cccc2C1=O	-3.1	-0.18	-17	9
COc1cc(O)cc(O)c1C(=O)/C=C/c1ccccc1	-4.1	-0.78	-2	5
COc1cc(O)c2c(=O)cc(-c3ccc(O)cc3)oc2c1	.	-0.32	-28	-83
Cc1ccc(S(=O)(=O)N(C)C[C@@H]2Oc3ccc(NC(=O)NC(C)C)cc3C(=O)N([C@@H](C)CO)C[C@H]2C)cc1	0.6	0.042	-25	4
C[C@@H]1CN([C@H](C)CO)C(=O)c2cc(NC(=O)Nc3ccccc3)ccc2O[C@@H]1CN(C)C(=O)Nc1ccc(C(F)(F)F)cc1	-1.3	0.4	-30	-1
C[C@H]1CN([C@@H](C)CO)C(=O)c2cccc(NC(=O)c3ccncc3)c2O[C@H]1CN(C)Cc1ccc(Cl)c(Cl)c1	.	0.05	25	-3
C[C@H]1CN([C@@H](C)CO)C(=O)c2cccc(NC(=O)Nc3ccc4c(c3)OCO4)c2O[C@H]1CN(C)S(=O)(=O)c1cn(C)cn1	.	0.078	-30	-19
C[C@@H]1CN([C@H](C)CO)C(=O)c2cccc(NS(=O)(=O)c3ccc(F)cc3)c2O[C@@H]1CN(C)Cc1ccc2c(c1)OCO2	.	0.09	-13	-20
O=C(CSc1nnc(-c2ccncc2)o1)NC(=O)Nc1ccccc1	0.6	0.42	-16	0
CNC(=O)Cc1coc2ccc3ccccc3c12	-0.1	-0.56	.	1
C[C@H]1CN([C@@H](C)CO)C(=O)Cc2cc(NS(=O)(=O)c3ccc(Cl)cc3)ccc2O[C@@H]1CN(C)Cc1ccc(-c2ccccc2)cc1	-1.0	0.14	15	18
C[C@@H]1CCCCO[C@@H](CN(C)Cc2ccc(C(F)(F)F)cc2)[C@@H](C)CN([C@H](C)CO)C(=O)c2cc(NS(=O)(=O)c3cn(C)cn3)ccc2O1	.	0.08	-32	-13
C[C@H](CO)N1C[C@H](C)[C@@H](CN(C)CC2CC2)Oc2c(NC(=O)Nc3ccc(C(F)(F)F)cc3)cccc2C1=O	-2.4	0.45	0	-7
C[C@H](CO)N1C[C@H](C)[C@@H](CN(C)S(=O)(=O)c2ccc(Cl)cc2)Oc2ccc(NC(=O)CCCCCC(=O)Nc3ccccc3N)cc2C1=O	0.6	-0.21	.	18
Cc1onc(-c2ccccc2Cl)c1C(=O)NC(=S)NCc1ccco1	0.2	-0.039	45	-18
Nc1nc(SCC(=O)N2CCc3ccccc32)n[nH]1	2.3	.	.	7
Cc1ccc(S(=O)(=O)c2nc(NCCN(C)C)sc2Cl)cc1	-0.8	.	.	-18
Cc1ccc(S(=O)(=O)N(C)C[C@H]2Oc3ccc(NC(=O)Nc4ccc(C(F)(F)F)cc4)cc3C(=O)N([C@@H](C)CO)C[C@@H]2C)cc1	-0.3	-0.29	.	-7
C[C@H](CO)N1C[C@H](C)[C@@H](CN(C)Cc2ccc(Oc3ccccc3)cc2)Oc2ccc(NC(=O)Cn3cnnn3)cc2C1=O	-0.6	-0.65	-4	-1
CCc1ccc2oc(-c3cc(NC(=O)COc4ccc(OC)cc4)ccc3Cl)nc2c1	-1.1	.	.	-19
C[C@H]1CN([C@@H](C)CO)C(=O)Cc2cc(NS(=O)(=O)c3ccc(Cl)cc3)ccc2O[C@@H]1CN(C)S(=O)(=O)c1ccc(F)cc1	.	0.034	-21	6
C[C@H]1CN([C@@H](C)CO)C(=O)c2cc(NC(=O)C3CC3)ccc2O[C@H]1CN(C)C(=O)Nc1ccc(F)cc1	.	-0.47	.	-1
C[C@H](CO)N1C[C@H](C)[C@@H](CN(C)S(=O)(=O)c2cccs2)Oc2c(NC(=O)Nc3cccc4ccccc34)cccc2C1=O	1.3	0.098	-3	-15
O=C(CN1C(=O)c2ccccc2C1=O)Nc1nccs1	0.6	-0.37	-30	7
COc1ccc(-c2nn(C)c(=O)c3ccccc23)cc1NC(=O)COc1ccc(C)cc1	-0.6	.	.	66
C[C@H](CO)N1C[C@H](C)[C@H](CN(C)Cc2ccc(C(F)(F)F)cc2)Oc2c(NC(=O)Nc3cccc4ccccc34)cccc2C1=O	-5.3	-1	-12	55
O=C(O)CCC(=O)Nc1ccc(Cc2ccncc2)cc1	0.8	8.6*	-15	-10
COc1ccc(OC)c(S(=O)(=O)N2CCC(C(=O)Nc3ccc(OC)c(Cl)c3)CC2)c1	-0.9	.	.	8
C[C@H]1CN([C@@H](C)CO)C(=O)c2cc(NS(C)(=O)=O)ccc2O[C@@H]1CN(C)CC1CC1	0.4	-0.44	3	-1
C[C@H]1CN([C@@H](C)CO)C(=O)c2cccc(NC(=O)c3cnccn3)c2O[C@H]1CN(C)C(=O)Nc1ccc2c(c1)OCO2	.	0.46	-1	-4
O=C(COc1ccc(Br)cc1)Nc1ccc2nn(-c3ccc(F)cc3)nc2c1	-0.9	.	.	-98
Cc1noc(C)c1NC(=O)N(C)C[C@@H]1Oc2ccc(NC(=O)CCCCCC(=O)Nc3ccccc3N)cc2CC(=O)N([C@H](C)CO)C[C@H]1C	1.3	-0.12	.	-5
COc1ccc(S(=O)(=O)N(C)C[C@H]2Oc3ccc(NC(=O)Nc4c(C)noc4C)cc3C(=O)N([C@H](C)CO)C[C@H]2C)cc1	1.9	0.24	-24	5
C[C@@H]1CN([C@H](C)CO)C(=O)Cc2cc(N(C)C)ccc2O[C@@H]1CN(C)S(C)(=O)=O	1.0	-0.29	-30	7
COc1ccc(C(=O)Nc2ccc(S(=O)(=O)Nc3cc(C)on3)cc2)cc1	2.3	.	.	-3
O=c1c(O[C@@H]2O[C@H](CO)[C@H](O)[C@H](O)[C@H]2O)c(-c2ccc(O)c(O)c2)oc2cc(O)cc(O)c12	-0.3	-0.0085	-37	-18
C[C@@H]1CCC[C@H](C)N1NC(=O)c1ccc(Cl)c(S(N)(=O)=O)c1	.	0.27	27	2
CS(=O)(=O)Nc1ccc(C(=O)CC2(O)C(=O)Nc3ccc(Br)cc32)cc1 (stereo not drawn)	0.2	.	.	-23
Cc1noc(C)c1NC(=O)Nc1ccc2c(c1)C(=O)N([C@@H](C)CO)C[C@@H](C)[C@@H](CN(C)S(=O)(=O)c1cn(C)cn1)O2	2.2	-0.12	-4	-3
CC(C)NC(=O)N(C)C[C@@H]1Oc2c(NC(=O)C3CCOCC3)cccc2C(=O)N([C@H](C)CO)C[C@@H]1C	1.7	-0.16	-2	6

Screening data deposited in PubChem by Broad Institute.

Some of the compounds tested, so the mix of outcomes need not match the whole.
